SARS PLpro yeast – blocks SARS-CoV papain-like protease in a yeast assay; S. cerevisiae expressing SARS-CoV PLpro, growth rescue; control for the full effect not named in the record; Potency, µM (highest dose often 32.9 µM), inactives show at the top dose activity, positive = growth rescue; 330,000 tested, 0.19% active; AID 485353; active means well fitted rising curve with a large enough effect; inconclusive means small, poorly fitted or top-dose-only effect; inactive means no such curve, though single readings can be large or run the other way; also: 0% is about no effect; nearly all actives have a fitted effect of over 55% in size; growth read by luminescence after 48 h
Lassa entry inh – blocks Lassa virus binding to or entry into cells | Lassa virus pseudotype entry inhibition, cell reporter; control for the full effect not named in the record | Potency, µM (doses to about 37.9 µM), without a hit: at the highest dose activity change, negative = inhibition, most hits filed as inhibitors | 300,000 tested, 1.2% active; active means well fitted inhibition curve with a large enough effect; inconclusive means small, poorly fitted or top-dose-only effect, or effect the other way; inactive means flat fitted curve, though single readings scatter; tested in HEK293 cells; also: % is scaled to controls: 0 for no effect and ±100 for the full control effect; nearly all actives have a fitted effect of over 50% in size; luciferase read-out
StopGo reporter – lowers the luciferase signal of an FMDV 2A StopGo reporter | human cells with a luciferase reporter of 2A StopGo recoding; control for the full effect not named in the record | 410,000 tested, 1.2% active | Potency, µM (doses to about 57.9 µM), for the others: top-dose signal change, negative = less light | AID 1159524; active = well fitted falling curve with a large enough effect; inconclusive = small, poorly fitted or top-dose-only effect; inactive = no such curve, though single readings can be large or run the other way; tested in HEK293T cells; also: % is scaled to controls: 0 for no effect and ±100 for the full control effect; nearly all actives have a fitted effect of over 45% in size; luciferase light after 4 h
NS1 inh – inhibitors of influenza NS1 protein function. S. cerevisiae slowed by influenza A NS1, growth recovery by OD600. Potency, µM (titrated, usually from 46.1 µM), for the others: top-dose activity, positive = more growth. 270,000 tested, 0.4% active. AID 2326; active means well fitted rising curve with a large enough effect; inconclusive means small, poorly fitted or top-dose-only effect; inactive means no such curve, though single readings can be large or run the other way; also: nearly all actives have a fitted effect of over 50% in size
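A cell-based growth assay was used: compounds that relieve NS1-induced slow growth of budding yeast raise OD600. Assay medium was yeast nitrogen base with ammonium sulphate and -URA supplement, pH 6.0, with 2% galactose.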
Marburg entry inh – blocks Marburg virus binding to or entry into cells; Marburg virus pseudotyped entry inhibition, cell reporter; control for the full effect not named in the record; about a third of the inactives were read at about 46 µM; Potency, µM (series often up to 37.8 µM), without a hit: at the highest dose activity change, negative = inhibition, most hits filed as inhibitors; 300,000 tested, 1.8% active; AID 540276; active = well fitted inhibition curve with a large enough effect; inconclusive = small, poorly fitted or top-dose-only effect, or effect the other way; inactive = flat fitted curve, though single readings scatter; tested in HEK293 cells; about a fifth of its hits are not listed in these tables; also: % is scaled to controls: 0 for no effect and ±100 for the full control effect; luciferase read-out
Cruzain Triton – inhibitors of Trypanosoma cruzi cruzain with detergent; purified cruzain, Z-FR-AMC fluorescence, 0.01% Triton; 200,000 tested, 0.43% active; Potency, µM, inactives show max response, negative = inhibition, hits mostly inhibitors; P25779;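 also: plate controls were neutral wells for no effect and buffer without enzyme for full effect; nearly all actives have a fitted effect of over 40% in size; top concentration of the series not given in the record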
Target sequence (P25779 123-467 limits assumed): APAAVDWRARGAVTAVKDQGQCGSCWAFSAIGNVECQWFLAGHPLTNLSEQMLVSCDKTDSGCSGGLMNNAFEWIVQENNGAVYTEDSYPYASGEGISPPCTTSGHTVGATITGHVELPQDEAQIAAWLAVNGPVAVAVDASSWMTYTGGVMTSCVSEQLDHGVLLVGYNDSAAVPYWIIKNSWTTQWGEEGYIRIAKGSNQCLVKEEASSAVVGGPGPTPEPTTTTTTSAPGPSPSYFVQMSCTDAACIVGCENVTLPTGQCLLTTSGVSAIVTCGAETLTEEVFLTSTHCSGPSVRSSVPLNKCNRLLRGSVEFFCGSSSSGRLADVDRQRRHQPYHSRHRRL
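Detergent-containing run (0.01% Triton X-100) in acetate buffer pH 5.5 with 5 mM DTT: enzyme at 1.5 nM final, 15 min compound preincubation at room temperature, then 2 uM Z-FR-AMC substrate. Activity taken as 60 s fluorescence increase at 360/450 nm.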
Cruzain inh noDet – blocks cruzain activity in detergent-free assay | P25779 | purified cruzain, Z-FR-AMC fluorescence, no detergent | Potency, µM, without a hit: max response, negative = inhibition, usual class: inhibitors | 200,000 tested, 2.3% active | AID 1476;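 also: plate controls were enzyme without inhibitor for no effect and buffer without enzyme for full effect; nearly all actives have a fitted effect of over 40% in size; top concentration of the series not given in the record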
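Detergent-free condition (0.00005% Triton X-100) in acetate buffer pH 5.5 with DTT. 1.5 nM enzyme and compound were pre-mixed 15 min, then 2 uM Z-FR-AMC substrate added; reaction progress from fluorescence change between first and third reads (60 s).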
RE007 growth inh – less growth of the S. pombe RE007 Vpr strain. Potency, µM (titrated, usually from 92.2 µM), inactives show top-dose activity change, negative = less growth. AID 651644. 360,000 tested, 0.21% active. S. pombe RE007 Vpr strain, BacTiter-Glo ATP luminescence, 24 h; control for the full effect not named in the record; active = well fitted falling curve with a large enough effect; inconclusive = small, poorly fitted or top-dose-only effect; inactive = no such curve, though single readings can be large or run the other way;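 also: % is scaled to controls: 0 for no effect and ±100 for the full control effect; nearly all actives have a fitted effect of over 50% in size; the assay follows cell death caused by Vpr and the record does not say whether a fall means rescue or toxicity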
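Fission yeast strain RE007, carrying one chromosomally integrated HIV-1 vpr copy, was seeded at OD 0.01 in PMG+AL medium with 23 nL pinned compound. After 24 h at 30 °C and 99% humidity, viability was read by BacTiter-Glo luminescence.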
Starred values were filed as active, the others as inactive; [ ] = remark or other dose. Unless noted, calls follow the shape of the dose curve; as a rule, active = well fitted curve in the direction sought with a large enough effect; inconclusive = small, poorly fitted or top-dose-only effect, or another doubt; inactive = no such curve, though single readings can be large; an effect the other way counts as inactive or inconclusive. Potency is read from the fitted curve at half-maximal effect.

For COc1ccc(Cn2c(C(=O)O)c(CNCCc3cccs3)c3ccc(OC)cc32)cc1 the results were Lassa entry inh -13%[46.1 µM], StopGo reporter -6%, Cruzain Triton -4.4% and Cruzain inh noDet -3%.
For N#CCCCSc1nnc(-c2ccccn2)o1 the results were SARS PLpro yeast 4%, Lassa entry inh 1%, StopGo reporter 49%[activator], NS1 inh 2%, Marburg entry inh 19%, Cruzain Triton 0.1%, Cruzain inh noDet -2% and RE007 growth inh -15%.
For O=C(c1ccc(Cn2cc(Br)cn2)cc1)N1CCN(c2ccccc2)CC1 the results were SARS PLpro yeast -12%, Lassa entry inh -29%, StopGo reporter -18%, NS1 inh -13%, Marburg entry inh inconclusive, Cruzain Triton -2.2%, Cruzain inh noDet 15% and RE007 growth inh 7%.
`O=C(O)CC1S/C(=N\N=C2CCCCCC2)N(c2ccccc2)C1=O` (stereo not given) gave SARS PLpro yeast 1%, Lassa entry inh 24%, StopGo reporter -5%, NS1 inh 3%, Marburg entry inh 27%[46.1 µM] and RE007 growth inh 9%.
COc1cc2c(cc1OC)C(c1cccs1)N(C(=O)c1cccnc1)CC2 (stereo not given) was read as SARS PLpro yeast 0%, Lassa entry inh inconclusive, StopGo reporter -19%, NS1 inh -2%, Marburg entry inh inconclusive and RE007 growth inh -1%.
Screening NS(=O)(=O)c1ccc(NS(=O)(=O)c2cccs2)cc1 returned SARS PLpro yeast -2%, Lassa entry inh 2%, NS1 inh -1%, Marburg entry inh 3%, Cruzain Triton 15%, Cruzain inh noDet 1% and RE007 growth inh -7%.
CCN1CCN(S(=O)(=O)c2ccc(Cl)c(C(=O)NC(C)(C)C)c2)CC1 was read as SARS PLpro yeast -1%, Lassa entry inh 1%[46.1 µM], StopGo reporter -10%, Marburg entry inh 10%[46.1 µM] and RE007 growth inh -10%.
For Cc1ccc(S(=O)(=O)N=S(CC2CC2(Cl)Cl)CC2CC2(Cl)Cl)cc1 (stereo not given) the results were SARS PLpro yeast -6%, Lassa entry inh 9%, StopGo reporter 40%[activator], NS1 inh 2%, Marburg entry inh 5%, Cruzain Triton -3.3%, Cruzain inh noDet 11% and RE007 growth inh 13%.
For Cc1cccc(Cc2cnc(N3C(=N)SC(C)C3=O)s2)c1 (stereo not given) the results were SARS PLpro yeast 3%, Lassa entry inh -15%, StopGo reporter -15%, Marburg entry inh inconclusive and RE007 growth inh inconclusive.
COc1cc(Cl)c(C)cc1NC(=O)CSc1sc2c(O)cc(=O)[nH]c2c1C#N was read as SARS PLpro yeast 3%, Lassa entry inh 28%[46.1 µM], StopGo reporter -17%, NS1 inh 14%, Marburg entry inh inconclusive and RE007 growth inh 20%.
`Cc1ccc2[nH]c3c(c2c1)CN(C(=O)CN1CC(C)OC(C)C1)CC3` (stereo not given) gave SARS PLpro yeast -4%, Lassa entry inh -15%, StopGo reporter -11%, NS1 inh 3%, Marburg entry inh 6%, Cruzain Triton 5.7%, Cruzain inh noDet -5% and RE007 growth inh -1%.
Screening COCCCN(C(=O)c1ccccc1F)c1nc(-c2ccc(OC)cc2)cs1 returned SARS PLpro yeast -1%, StopGo reporter -11%, NS1 inh -24% and RE007 growth inh -2%.
For Cc1oc(-c2ccc(Cl)cc2)nc1CN1C(=O)CN=C(c2ccccc2)c2ccccc21 the results were Lassa entry inh -2%[46.1 µM], StopGo reporter inconclusive, Marburg entry inh -18%[46.1 µM], Cruzain Triton -4.5% and Cruzain inh noDet inconclusive.
`O=C(Cc1ccccc1)OCCNC(=O)c1cccnc1` gave SARS PLpro yeast 1%, Lassa entry inh -2%, NS1 inh 5%, Marburg entry inh inconclusive, Cruzain Triton -4.4%, Cruzain inh noDet 6% and RE007 growth inh -10%.
`Cc1cc(C)c(S(=O)(=O)N2CCN(c3ccc([N+](=O)[O-])c(NCc4ccco4)c3)CC2)c(C)c1` gave SARS PLpro yeast -1%, Lassa entry inh 3%, NS1 inh inconclusive, Marburg entry inh 4%, Cruzain Triton -0.2%, Cruzain inh noDet 6.3µM* and RE007 growth inh 12%.
`CCn1cc(CN2CCC(C(=O)Nc3cccc(-c4cccc(OC)c4)c3)CC2)cn1` gave SARS PLpro yeast -4%, Lassa entry inh -1%, StopGo reporter -5%, NS1 inh 0%, Marburg entry inh 21% and RE007 growth inh -18%.
COc1ccc(-c2cc3nc(C)c(CCC(=O)NCCc4ccc(Cl)cc4)c(C)n3n2)c(OC)c1 was read as Lassa entry inh inconclusive, StopGo reporter inconclusive, Marburg entry inh 2%[46.1 µM], Cruzain Triton 2.5% and Cruzain inh noDet inconclusive.
For COc1cccc(/C=C/C(=O)OCC(=O)Nc2cccc(S(=O)(=O)N3CCOCC3)c2)c1OC the results were SARS PLpro yeast 0%, Lassa entry inh 3%, StopGo reporter -8%, Marburg entry inh -1%[46.1 µM] and RE007 growth inh 1%.
For O=C1NC2(C=Cc3c(ccc4ccccc34)O2)Oc2ccccc21 (stereo not given) the results were SARS PLpro yeast -4%, Lassa entry inh 4%, StopGo reporter 6%, NS1 inh -51%, Marburg entry inh -21%, Cruzain Triton -25%, Cruzain inh noDet 11% and RE007 growth inh inconclusive.
CC(C)(C)c1ccc(OCCC(=O)Nc2ccc(N3CCOCC3)cc2N2CCOCC2)cc1 was read as SARS PLpro yeast 1%, Lassa entry inh inconclusive, StopGo reporter -20%, Marburg entry inh inconclusive and RE007 growth inh -19%.
`CC(=O)c1ccc(Sc2ccccc2)c([N+](=O)[O-])c1` gave SARS PLpro yeast 1%, Lassa entry inh -20%, StopGo reporter 11%, NS1 inh -40%, Marburg entry inh 17%[46.1 µM] and RE007 growth inh inconclusive.
For CN1C(=O)c2cccc3c(S(=O)(=O)Nc4ccccn4)ccc1c23 the results were SARS PLpro yeast 1%, Lassa entry inh 5%, StopGo reporter 84%[activator], NS1 inh 3%, Marburg entry inh 4%, Cruzain Triton -5.8%, Cruzain inh noDet 21% and RE007 growth inh -26%.
CN(C)CCN=Cc1c(O)n(Cc2ccc3c(c2)OCO3)c(=S)[nH]c1=O was read as SARS PLpro yeast 0%, Lassa entry inh -27%[46.1 µM], StopGo reporter 4%, NS1 inh 3%, Marburg entry inh inconclusive and RE007 growth inh -14%.
Nc1ccc(CCc2nc3ccccc3o2)cc1 was read as SARS PLpro yeast -5%, Lassa entry inh inconclusive, StopGo reporter -9%, NS1 inh -11%, Marburg entry inh inconclusive, Cruzain Triton 3.3%, Cruzain inh noDet 10% and RE007 growth inh -8%.
Screening COC(=O)c1cc(C)nc(Sc2ccccc2NC(C)=O)n1 returned SARS PLpro yeast 1%, StopGo reporter -2%, NS1 inh 3% and RE007 growth inh -1%.
CCOc1ccc2[nH]c(=O)c(=O)[nH]c2c1 was read as SARS PLpro yeast 3%, Lassa entry inh -14%, StopGo reporter 2%, NS1 inh 5%, Marburg entry inh 1%[46.1 µM], Cruzain Triton 4.5%, Cruzain inh noDet -10% and RE007 growth inh 3%.
For CC1=CC(=O)NP(=O)(Oc2ccc3ccccc3c2)N1 (stereo not given) the results were SARS PLpro yeast -19%, Lassa entry inh -23%, StopGo reporter -24%, NS1 inh -47%, Marburg entry inh 25%, Cruzain Triton 3.6%, Cruzain inh noDet 3% and RE007 growth inh -23%.
For CSc1nc(NCCCO)c2c3c(sc2n1)CN(C)CC3 the results were SARS PLpro yeast -1%, StopGo reporter -2%, NS1 inh -2% and RE007 growth inh -11%.
`Cc1nn(C2CCS(=O)(=O)C2)c(Cl)c1/C=C/C(=O)OCC(=O)Nc1ccc2c(c1)OCO2` (stereo not given) gave SARS PLpro yeast 0%, Lassa entry inh -3%[46.1 µM], StopGo reporter -7%, Marburg entry inh inconclusive and RE007 growth inh 2%.
For O=C(c1cccnc1)N1CCc2ccccc2C1 the results were SARS PLpro yeast -9%, Lassa entry inh 50%[14.3 µM], StopGo reporter 20%, NS1 inh inconclusive, Marburg entry inh 6%, Cruzain Triton 3.3%, Cruzain inh noDet 2% and RE007 growth inh 6%.
For CCOc1ccc(-c2c(=O)n(OCc3ccccn3)c3ccccc3[n+]2[O-])cc1 the results were SARS PLpro yeast 11%, Lassa entry inh -5%, StopGo reporter 44%[activator], NS1 inh -4%, Marburg entry inh 16%, Cruzain Triton 2.2%, Cruzain inh noDet 16% and RE007 growth inh 1%.
`CCOc1cc(C(=O)OCC(=O)c2c[nH]c3ccccc23)ccc1OCC(=O)N1CCOCC1` gave SARS PLpro yeast -1%, Lassa entry inh -4%, StopGo reporter -13%, NS1 inh -8%, Marburg entry inh 1%[46.1 µM], Cruzain Triton 1.2%, Cruzain inh noDet inconclusive and RE007 growth inh 5%.
CCOC(=O)C1(Cc2cccc(OC)c2)CCN(Cc2cccc(O)c2)CC1 was read as SARS PLpro yeast -2%, Lassa entry inh -15%, StopGo reporter inconclusive, NS1 inh -3%, Marburg entry inh inconclusive and RE007 growth inh -13%.
For COc1c(Cl)cc(Cl)cc1CNCCO the results were SARS PLpro yeast -2%, Lassa entry inh 4%, StopGo reporter -8%, NS1 inh 0%, Marburg entry inh 3%[46.1 µM] and RE007 growth inh 10%.
O=C(COc1ccc(S(=O)(=O)NCc2ccccc2)cc1Cl)NCC1CCCO1 (stereo not given) was read as SARS PLpro yeast 15%, Lassa entry inh 1%, NS1 inh -5%, Marburg entry inh -6%, Cruzain Triton 4.2%, Cruzain inh noDet 1% and RE007 growth inh 6%.
Screening CCOc1ccc(C2c3c(oc4ccc(C)cc4c3=O)C(=O)N2CCCN(C)C)cc1 (stereo not given) returned Lassa entry inh inconclusive, StopGo reporter 25%, Cruzain Triton -1.2% and Cruzain inh noDet -4%.
For CCN(c1cccc(C)c1)S(=O)(=O)c1ccc(N2CCCCS2(=O)=O)cc1 the results were Lassa entry inh -26%[46.1 µM], StopGo reporter -6%, Cruzain Triton -4.9% and Cruzain inh noDet 6%.
For CCNC(=S)N/N=C(\C)c1ccc(N2CCOCC2)cc1 the results were SARS PLpro yeast -1%, Lassa entry inh inconclusive, StopGo reporter -8%, NS1 inh -3%, Marburg entry inh 3%, Cruzain Triton -7.4%, Cruzain inh noDet -10% and RE007 growth inh -24%.
`COc1cc2c(cc1OC(C)=O)CCCCC2=O` gave Lassa entry inh 25%, StopGo reporter -16%, Marburg entry inh -9% and RE007 growth inh 33%.

Screening results from PubChem BioAssay.
